# Source: PubChem BioAssay
# CHT PAM = allosterically activates the human high affinity choline transporter. Q9GZV3. CHT-expressing cells, membrane potential dye, choline EC20; hits give high values; LV-AA mutant CHT in HEK293 cells. B-score at 10 µM. 310,000 tested, 0.49% active. AID 488977;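 active = initial fluorescence not abnormally high and integrated response B-score, plate-corrected, over 3 SD above library mean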
# Target sequence (Q9GZV3 whole entry, looked up): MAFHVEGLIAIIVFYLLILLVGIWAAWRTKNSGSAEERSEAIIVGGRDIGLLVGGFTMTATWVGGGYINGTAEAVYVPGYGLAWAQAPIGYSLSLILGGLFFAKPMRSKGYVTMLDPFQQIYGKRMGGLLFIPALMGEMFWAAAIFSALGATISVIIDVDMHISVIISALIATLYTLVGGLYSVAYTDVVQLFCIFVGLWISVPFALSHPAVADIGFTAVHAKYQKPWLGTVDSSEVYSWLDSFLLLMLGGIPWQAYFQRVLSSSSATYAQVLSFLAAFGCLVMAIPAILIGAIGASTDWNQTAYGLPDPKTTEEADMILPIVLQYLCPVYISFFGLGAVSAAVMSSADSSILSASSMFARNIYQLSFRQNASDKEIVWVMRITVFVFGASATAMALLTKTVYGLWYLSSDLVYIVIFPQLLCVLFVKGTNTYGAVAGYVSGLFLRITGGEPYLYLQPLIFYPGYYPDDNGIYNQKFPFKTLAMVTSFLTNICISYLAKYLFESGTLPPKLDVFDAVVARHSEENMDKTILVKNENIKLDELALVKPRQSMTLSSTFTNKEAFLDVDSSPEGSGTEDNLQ
# Calls only; i = inactive. The list is partial; most or all hits stand in other tables.
SMILES,CHT PAM
Clc1ccc(-c2nnc3sc(-c4ccc(Br)o4)nn23)cc1,i
CCN1C(=O)[C@H]2[C@@H](c3ccc(C)cc3)N3C(=O)N(c4ccc(C)cc4)C(=O)[C@@]3(C)[C@H]2C1=O,i
CC(=O)Oc1c(Sc2ccccc2[N+](=O)[O-])c(C)nn1C(C)(C)C,i
CCc1ccc(NS(=O)(=O)c2ccc3oc(=O)ccc3c2)cc1,i
Cn1cccc1Cc1nnc(SCC(=O)NC2CCCC2)n1CCc1ccccc1,i
Cc1ccccc1Nc1nnc(SCc2nc3ccccc3c(=O)[nH]2)s1,i
CC(C)[C@H](NC(=O)OCc1ccccc1)C(=O)OCC(=O)NC1CCCCC1,i
COc1ccc(NC(=O)CN2CCc3ccccc3C2)cc1S(=O)(=O)N1CCOCC1,i
CCOc1ccc(NC(=O)CN(C)CC(=O)Nc2ccccc2SC)cc1OCC,i
O=C(Cc1nn[nH]n1)NCCC1=CCCCC1,i
CCOc1cccc(NC(=O)C2CCCN(S(=O)(=O)c3ccc(-n4cnnn4)cc3)C2)c1 (stereo unspecified),i
COc1ccc(CCNC(=S)N2CCN(S(=O)(=O)c3ccccc3F)CC2)cc1,i
COc1ccc(-c2cnnc(N/N=C/C(C)=C/c3ccccc3)n2)cc1,i
CCOC(=O)c1cc(C#N)c(SCC(=O)Nc2ccc(C(C)=O)cc2)[nH]c1=O,i
COC(=O)C1=C(C)NC=C([N+](=O)[O-])C1c1ccc(OC)cc1 (stereo unspecified),i

# Among those listed so far, these have an NH in an aromatic ring.
SMILES,CHT PAM
Cc1ccccc1Nc1nnc(SCc2nc3ccccc3c(=O)[nH]2)s1,i
O=C(Cc1nn[nH]n1)NCCC1=CCCCC1,i
CCOC(=O)c1cc(C#N)c(SCC(=O)Nc2ccc(C(C)=O)cc2)[nH]c1=O,i

# Continuation:
SMILES,CHT PAM
Cc1nn2c(-c3ccco3)nnc2c2ccccc12,i
CSc1nc(C)cc(OCC#N)n1,i
Cc1cc(N)n(-c2nc(-c3cccnc3)nc3ccccc23)n1,i
O=C(NN=C1CCCC1)NC1CCCCC1,i
CCCCC(=O)NC(c1ccco1)c1c(O)ccc2ccccc12 (stereo unspecified),i
CCOc1ccccc1N(CC(=O)Nc1ccc(S(=O)(=O)N2CCOCC2)cc1)S(=O)(=O)c1ccc(Cl)cc1,i
Cc1cc(N)n(-c2ccc(Cl)cc2)n1,i
CCc1nc2ccc(C(=O)NCCc3ccccc3OC)cc2nc1CC,i
Cc1nnc2ccc(-c3cccc(NC(=O)Cc4cccs4)c3)nn12,i
C#CC1(NC(=O)NC(C)(C)C)CCCCC1,i
COC(=O)c1sc(C(C)(C)C)cc1CS(=O)(=O)c1ccc(Cl)cc1,i
Cc1nn(CC(=O)N2CCC(N3CCCCC3)CC2)c(=O)c2c1sc1ccccc12,i
CN(CC(=O)Nc1ccc(F)c(F)c1F)C(=O)CC1OC(=O)c2ccccc21 (stereo unspecified),i
CCOC(=O)c1c(S(=O)(=O)N2CCCC(C(=O)Nc3ncccc3C)C2)c(C)n(C)c1C (stereo unspecified),i
CCCc1nnc(NC(=O)CN2CCOCC2)s1,i
CCCCOC(=O)Nc1ccc(C(C)C)cc1,i
C=CCNC(=S)NNC(=O)c1ccc(Br)cc1,i
CCC1(CC)NC(=O)N(CC(=O)OCC(=O)Nc2cc(C)ccc2C)C1=O,i
S=C(NC1CCCCCC1)NC1CCCC1,i
O=C(CSc1nnc(-c2ccccc2F)n1C1CC1)NC(=O)c1cccc([N+](=O)[O-])c1,i
COCCN1C(=O)c2ccc(C(=O)NCc3cccnc3)cc2C1=O,i
COC(=O)c1ccn(-c2nc(-c3ccco3)cc(C(F)(F)F)n2)n1,i
COC(=O)c1cc(NC(=O)Cn2nc(C)n3cccc3c2=O)cc(C(=O)OC)c1,i
Cc1ccc2cc(C(c3nnnn3CC3CCCO3)N3CCc4ccccc4C3)c(=O)[nH]c2c1 (stereo unspecified),i
O=C1NC2c3ccccc3C(=O)N2c2c1cnn2-c1ccccc1 (stereo unspecified),i
O=C(/C=C/c1cccc(Cl)c1)NCCN1CCOCC1,i
O=C(OCc1nc2ccccc2[nH]1)C1CCCCC1,i
O=C(C1CCN(C2CC(=O)N(c3ccc(Cl)cc3)C2=O)CC1)N1CCOCC1 (stereo unspecified),i
Cc1csc(NC(=O)CSc2ccc(-c3ccc(F)cc3)nn2)n1,i
Cc1c(Cl)c(C(=O)NNC(=S)NCc2ccco2)nn1C,i
COCc1cccc(C(=O)NC(c2ccccc2)c2ccccc2)c1,i
O=C(CSc1ncnc2sc3c(c12)CCC3)N1CCOCC1,i
Cc1ccc(OCCC(=O)OCC(=O)NNC(=O)c2ccccc2)cc1,i
CC(C)CNC(=O)C(=O)NNC(=O)C1CCCCC1,i
Cc1ccc(C)c(N2CCN(C(=O)CCc3nc4ccccc4[nH]3)CC2)c1,i
Cc1nnc(SCC(=O)N2CCc3ccccc3C2)n1-c1ccccc1,i
Cc1cccc(Sc2nc(-c3ccccc3)ncc2C(=O)O)c1,i
CN(C(=O)c1ccccc1)c1nccnc1C#N,i
COCCCNC(=O)C1CCC(=O)N1Cc1ccccc1Cl (stereo unspecified),i
CCC(C)(C)NC(=O)C(c1ccc(O)cc1)N(Cc1ccco1)C(=O)CCC(=O)Nc1ccccn1 (stereo unspecified),i
COc1ccc(CCNC(=O)Cn2nnc(-c3ccc(OC)c(OC)c3)n2)cc1OC,i
COc1ccc2cc(C(C)C(=O)O)ccc2c1 (stereo unspecified),i
COc1ccc(/C=C2\SC(=S)N(CCCC(=O)Nc3ccccn3)C2=O)cc1OC,i
COc1cc(C(=O)Nc2ccc(S(=O)(=O)NC(C)(C)C)cc2)cc(OC)c1OC,i
Cc1cc(NC(=O)c2ccc(C)o2)no1,i

# Quoted from the listing (three entries):
SMILES,CHT PAM
COCc1cccc(C(=O)NC(c2ccccc2)c2ccccc2)c1,i
O=C(CSc1ncnc2sc3c(c12)CCC3)N1CCOCC1,i
Cc1ccc(OCCC(=O)OCC(=O)NNC(=O)c2ccccc2)cc1,i

# Going on with the list.
SMILES,CHT PAM
CC(=O)Nc1ccc(S(=O)(=O)N(C)CC(=O)OCC(=O)N2CCc3ccccc32)cc1,i
COc1ccccc1C1CCCN1Cc1nc(-c2cc3c(cc2Cl)OCO3)oc1C (stereo unspecified),i
Cc1ccc(S(=O)(=O)NCCCn2ccnc2)cc1,i
CCOc1ccc(S(=O)(=O)Nc2cccc(Cl)c2)cc1,i
CC(C)(C)NC(=O)CN(CCN1CCOCC1)C(=O)CNS(=O)(=O)c1ccc(Cl)cc1,i
Cc1ccc(C(C)NC(=O)c2ccc3c(c2)OCO3)cc1C (stereo unspecified),i
CC(=O)Nc1ccc(S(=O)(=O)Oc2ccc(Br)cc2C(=S)N2CCOCC2)cc1,i
O=C(NCC1CCCO1)C(c1ccncc1)N(Cc1cccs1)C(=O)CN1C(=O)c2ccccc2S1(=O)=O (stereo unspecified),i
Cc1cc(-n2c(SCCC#N)nnc2-c2cccnc2)ccc1Cl,i
CC1=C(C(=O)Nc2ccc(Cl)cc2)C2(CCCCC2)C(C(N)=O)C(=S)N1 (stereo unspecified),i
COC(=O)c1ccc(NC(=O)[C@H](C)NC(N)=O)cc1,i
O=C(NCCOc1ccc(Cl)cc1)c1ccco1,i
COc1ccc(CCN(C(=S)Nc2ccccc2)C2CC(=O)N(c3ccccc3)C2=O)cc1 (stereo unspecified),i
Cc1cc(C)cc(N(C(=O)c2csnn2)C(C(=O)NC(C)(C)C)c2cccs2)c1 (stereo unspecified),i
COCCNc1nc(C)cc(-c2cc(C(=O)NCc3ccccc3)on2)n1,i
CCCCC1C(=O)N(c2ccccc2)N(c2ccc(O)cc2)C1=O (stereo unspecified),i
Cc1cc(NC(=O)CSc2nnc(C)c(=O)n2N)no1,i
CC(C)Oc1ccc(CCC(=O)NNC(=S)Nc2ccccc2)cc1,i
COc1ccccc1C(=O)N1CCNC(=O)C1CC(=O)Nc1cccc(C)c1 (stereo unspecified),i
CCOC(=O)C1CCCN(C(=S)Nc2ccc(OC)cc2)C1 (stereo unspecified),i
COc1cc([N+](=O)[O-])ccc1NC(=S)N1CCOCC1,i
CC1(C)OC(=O)C(=CNC(Cc2c[nH]c3ccccc23)C(=O)O)C(=O)O1 (stereo unspecified),i
COc1cc(NS(=O)(=O)c2ccc(NC(=O)NC3CCCCC3)cc2)nc(OC)n1,i
O=C(Nn1cc(C(=O)Nc2ccccc2F)c2ccccc2c1=O)c1cnccn1,i
CCOc1cc2[nH]c(=S)n(CCCOC)c(=O)c2cc1OCC,i
Cn1c(=O)c(=O)n(C)c2cc(S(=O)(=O)NCCOc3ccccc3)ccc21,i
O=C(O)CSc1nc2ccccc2n1-c1ccccc1,i
CC(=O)Nc1nc2c(ccc3ccccc32)s1,i
O=C(NCC(c1cccnc1)N1CCOCC1)C1CCCCC1 (stereo unspecified),i
O=C(O)c1cc2nc(-c3ccc(F)cc3)cc(C(F)(F)F)n2n1,i

# Reformatted: entries from further up.
> CCOc1cc2[nH]c(=S)n(CCCOC)c(=O)c2cc1OCC
  CHT PAM: i
> Cn1c(=O)c(=O)n(C)c2cc(S(=O)(=O)NCCOc3ccccc3)ccc21
  CHT PAM: i
> O=C(O)CSc1nc2ccccc2n1-c1ccccc1
  CHT PAM: i
> CC(=O)Nc1nc2c(ccc3ccccc32)s1
  CHT PAM: i

# Additional records follow.
SMILES,CHT PAM
O=c1[nH]nc(SCc2ccccc2)c(=O)[nH]1,i
C=CCSC1=C(C#N)C(c2ccccc2OCC)C(C#N)C(=O)N1 (stereo unspecified),i
O=c1c2cc(Cl)cc(Cl)c2nc2n1CCC2,i
CC(=O)Nc1ccc2c(c1)ncn2-c1ccc(C)cc1,i
CCOC(=O)c1cc[nH]c1C,i
COc1ccc(NC(=O)c2sc(SC)nc2N)cc1,i
N#Cc1c2c(c(NCCOCCO)n3c1nc1ccccc13)CCCC2,i
C#Cc1cccc(NC(=O)Cc2cccs2)c1,i
COc1ccc(C(=O)N2CCCC(c3nc(-c4cc(OC)c(OC)c(OC)c4)no3)C2)cc1 (stereo unspecified),i
Cc1cccc(-n2c(Cc3ccccc3)n[nH]c2=S)c1,i
CC(C)n1nnnc1SCC(=O)NCCc1ccccc1,i
CO/N=C/CC(=O)c1cnc(-c2ccccc2)s1,i
CN(C)CCNC(=O)c1cccc(S(=O)(=O)Nc2ccc(F)cc2)c1,i
COCCN1CCN(Cc2nc(C3(c4ccc(C)cc4)CCCC3)no2)CC1,i
Cc1[nH]nc2c1C(c1ccc3c(c1)OCO3)C(C#N)=C(N)O2 (stereo unspecified),i
Cc1cccc(C(=O)NCC2CCCO2)c1 (stereo unspecified),i
C=CCN1C(=O)C2C(C(=O)NCc3ccccc3)C3C=CC2(O3)C1C(=O)NC(C)(C)C (stereo unspecified),i
Cc1c(N=C2SCC(=O)N2/N=C/c2ccccc2)c(=O)n(-c2ccccc2)n1C,i
O=C(CCNC(=O)c1ccc([N+](=O)[O-])cc1)NCCc1ccc(Cl)cc1,i
Cc1ccc(S(=O)(=O)N2CCN(Cc3ccccc3)CC2)c(C)c1N(C)S(=O)(=O)c1ccccc1,i
O=C(N/N=C/c1cccnc1)c1cc2c(ccc3ccccc32)o1,i
COC(=O)c1cc(C#N)c(OC(C)C)nc1C,i
O=C(Nc1ccccc1F)c1ccccc1-c1ccccc1,i
O=C(CSc1n[nH]c(-c2ccccc2)n1)NCc1cccc(C(=O)O)c1,i
CCOC(=O)c1c(S(=O)(=O)NCC(=O)Nc2ccccc2F)c(C)n(C)c1C,i
COc1ccc(/C=N/NC(=O)CCc2ccccc2)cc1O,i
O=[N+]([O-])c1ccc(N/N=C/c2ccccc2)cc1,i
Cn1cccc1CC(=O)NNC(=S)Nc1ccc(Cl)cc1,i
CCc1ccccc1NC(=O)Cn1cccc1C1=NC(c2ccccc2)CO1 (stereo unspecified),i
COc1ccc(Cl)cc1NC(=O)C1Cc2ccccc2CN1S(C)(=O)=O (stereo unspecified),i

# Reformatted field by field: 4 of the compounds above
Cc1cccc(C(=O)NCC2CCCO2)c1 (stereo unspecified)
  CHT PAM: i
Cc1ccc(S(=O)(=O)N2CCN(Cc3ccccc3)CC2)c(C)c1N(C)S(=O)(=O)c1ccccc1
  CHT PAM: i
Cc1c(N=C2SCC(=O)N2/N=C/c2ccccc2)c(=O)n(-c2ccccc2)n1C
  CHT PAM: i
Cn1cccc1CC(=O)NNC(=S)Nc1ccc(Cl)cc1
  CHT PAM: i

# Additional results.
SMILES,CHT PAM
COc1cc2c(cc1OC)CN(C(=S)Nc1ccc(Cl)cc1)CC2,i
O=C(Nc1ccn(Cc2ccccc2F)n1)c1ccc(COc2cc(Cl)ccc2Cl)o1,i
O=C(NC(=S)Nc1ccc(S(=O)(=O)N2CCOCC2)cc1)c1ccccc1[N+](=O)[O-],i
CN(Cc1ccco1)C(=O)Cn1cc(S(=O)(=O)N2CCCC2)c(S(=O)(=O)N2CCCC2)c1,i
COc1cccc(CNC(=O)C2CCN(S(=O)(=O)c3ccc4c(c3)CC(C)N4C(C)=O)CC2)c1 (stereo unspecified),i
CC1=NN(c2ccc(C)cc2C)C(=O)C1C(c1ccccc1)C1C(=O)N(c2ccc(C)cc2C)N=C1C (stereo unspecified),i
COCc1ccc([C@@H]2C[C@H]3CN(Cc4cccnc4)C(=O)[C@]34CCCN24)o1,i
COc1ccc(OC)c(NC(=O)c2ccccc2OC(C)=O)c1,i
COc1ccc(CN2C(=O)CN=C2Nc2ccc(C)cc2C)cc1,i
CC(C)N=C(Nc1ccc(Cl)cc1)c1cccnc1,i
Cc1ccc(C(=O)NCc2nnc(SCC(=O)NC(C)c3ccccc3)n2C)cc1 (stereo unspecified),i
Cc1cnc(C(=O)OCc2ccc(Br)cc2F)cn1,i
O=C(NC1CC1)C1CCN(C2CCN(C(=O)c3c(F)cccc3Cl)CC2)CC1,i
CC(=O)N1CCN(C(=S)NCCc2ccccc2)CC1,i
O=C(CCNc1n[nH]c(=O)[nH]c1=O)N/N=C/c1ccccc1Br,i
